T cruzi repl: T. cruzi replication inhibition; inhibition, % (concentration not given with the values); 1.4% of 300,000 active; T. cruzi beta-gal in NIH3T3, luminescence, 90 h;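 active = mean inhibition across valid replicates above about 55%, limit read from the data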;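 note: signal also drops with host cell toxicity which is not excluded here; 0% = plate median of DMSO wells and 100% = zero luminescence signal; higher percent means less beta-gal luminescence so fewer parasites; stock transfer was 50 nL into about 50 µL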
FGF22 binding: shifts melting point of recombinant human FGF22. recombinant FGF22 thermal shift, SYPRO orange fluorescence; percent of sucrose octasulfate shift, DMSO zero. calls only at 9.99 µM. 1.5% of 340,000 active. AID 651658;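 active = melting point raised past a set limit in the mean and every replicate; three in four hits are not shown here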
Target sequence (Q9HCT0 whole entry, looked up): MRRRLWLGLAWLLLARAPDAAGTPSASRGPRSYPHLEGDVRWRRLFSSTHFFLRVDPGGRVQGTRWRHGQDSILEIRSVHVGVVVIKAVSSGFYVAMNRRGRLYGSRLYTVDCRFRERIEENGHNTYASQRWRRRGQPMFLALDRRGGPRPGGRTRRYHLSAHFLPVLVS
MLL AF4-AF9 inh: blocks AF4 peptide binding to human AF9; 0.47% of 350,000 active; inhibition, % at 10 µM; P42568; AID 651704; AlphaScreen, biotin-AF4 peptide binding to FLAG-AF9;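 active = every replicate reaching a set inhibition limit, whatever the replicate mean, cut at about 25% in these data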;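 note: 0% = plate neutral control median and 100% = total signal loss; the record names both 10 and 1 µM as test concentration; the first replicate is given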
Target sequence (P42568 whole entry, looked up): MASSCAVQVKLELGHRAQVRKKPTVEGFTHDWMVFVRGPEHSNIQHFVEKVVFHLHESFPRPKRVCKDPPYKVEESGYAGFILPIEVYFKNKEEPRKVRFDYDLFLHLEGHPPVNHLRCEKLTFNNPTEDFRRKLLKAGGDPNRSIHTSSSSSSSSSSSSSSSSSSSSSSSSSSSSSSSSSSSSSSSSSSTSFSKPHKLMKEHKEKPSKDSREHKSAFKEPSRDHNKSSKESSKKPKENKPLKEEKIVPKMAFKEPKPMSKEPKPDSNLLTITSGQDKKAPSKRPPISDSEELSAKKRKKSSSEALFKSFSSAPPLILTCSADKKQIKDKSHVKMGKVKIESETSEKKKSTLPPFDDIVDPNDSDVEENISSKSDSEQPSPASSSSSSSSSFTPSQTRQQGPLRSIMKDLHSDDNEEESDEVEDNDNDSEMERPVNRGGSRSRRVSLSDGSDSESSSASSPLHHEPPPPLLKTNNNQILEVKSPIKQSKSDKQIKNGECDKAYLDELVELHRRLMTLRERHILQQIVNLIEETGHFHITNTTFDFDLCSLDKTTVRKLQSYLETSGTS
Beta apoptosis: blocks beta cell apoptosis; INS-1E cytokine-induced death, ATP luminescence, 48 h; percent of positive-control rescue, neutral wells zero; protection from apoptosis, % (test concentration not listed); 0.8% of 300,000 active; AID 435005;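 active = all replicates at 75% or more, or half of them and the mean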;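 note: 0% = cytokine-treated negative control wells and 100% = positive control rescue; higher means more ATP so stronger rescue from cytokine killing; wells of about 40 µL received 100 nL stock; the first replicate is given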
Ecoli growth: blocks Escherichia coli growth. OD600 absorbance (test concentration not listed). OD600, 23 h; stronger effect = lower value. 0.21% of 330,000 active;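 active = OD600 absorbance below the run mean of sample wells minus 3.6 SD, in any replicate, cut at about 0.56 in these data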;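 note: stock transfer was 300 nL into about 60 µL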
UCH37 inh: human UCH37 deubiquitinating enzyme inhibition; Q9Y5K5; purified proteasome/UCH37, Ub-AMC cleavage fluorescence; inhibition, % (concentration not given with the values); 0.33% of 330,000 active;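 active = mean of two replicates above 20%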;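 note: 0% = compound-free wells with enzyme and 100% = wells lacking proteasome; stock transfer was 100 nL into about 20 µL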
Target sequence (Q9Y5K5 whole entry, looked up): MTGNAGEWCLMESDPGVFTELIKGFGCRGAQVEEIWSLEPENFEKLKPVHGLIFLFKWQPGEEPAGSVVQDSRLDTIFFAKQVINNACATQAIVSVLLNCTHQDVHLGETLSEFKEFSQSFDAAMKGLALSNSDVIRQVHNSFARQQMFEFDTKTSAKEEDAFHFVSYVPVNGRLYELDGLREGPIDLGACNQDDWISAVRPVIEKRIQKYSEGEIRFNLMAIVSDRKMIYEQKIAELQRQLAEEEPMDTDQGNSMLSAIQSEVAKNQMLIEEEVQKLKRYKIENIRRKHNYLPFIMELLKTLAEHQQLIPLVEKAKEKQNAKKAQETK
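Reagent: Ub-AMC substrate; assay system: Proteasome-associated human UCH37 deubiquitinase; controls: no-proteasome and no-compound wells; read-out: % inhibition of Ub-AMC cleavage fluorescence; timing: 30 min preincubation with enzyme, 25 min cleavage at room temperature; signal: AMC fluorescence from Ub-AMC cleavage, excitation 355 nm, emission 460 nm; buffer or medium: Tris-HCl pH 7.4 plus ovalbumin, ATP-MgCl2, DTT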
A1 inh: inhibitors of the anti-apoptotic protein A1, read as caspase activation | AID 2462 | caspase activation, % (no concentration beside the values) | 0.066% of 330,000 active | MEF A1-2A-BIM cells, Caspase-Glo 3/7 luminescence, 3 h; percent of clofoctol response, vehicle zero;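 active = over half of replicate activation scores above 10%, or exactly half above 10 with the replicate mean above 10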;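 note: wells of about 30 µL received 50 nL stock; many hits fall short of the cut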
rRNA inh HTS: inhibitors of bacterial rRNA selective over humanized ribosomes | E. coli WT GFP vs humanized-ribosome RFP mutants, fluorescence, 24 h; stronger effect = lower value; DMSO median 0, no signal -100 | AID 720706 | GFP signal change (wild-type ribosome), % (concentration not given with the values) | 1.6% of 350,000 active;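 active = significant combined selectivity score with lowered wild-type GFP, culture density cut under 30%, mutant RFP and density less affected; inactive = any of these conditions unmet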; note: one replicate is shown; some compounds called inactive have numbers as strong as hits
rRNA inh HTS OD600: second read-out of rRNA inh HTS, no call of its own (marks repeat the call); OD600 change, %; measured here: OD600 growth;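 optical density of the mix in the first replicate; 0 = DMSO median and -100 = no signal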
rRNA inh HTS RFP: further read-out of rRNA inh HTS, marked with its call; RFP signal change, %; measured here: RFP humanized mutant strains;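 first replicate; 0 = DMSO median and -100 = no signal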
Active calls of the source: *; i = inactive; nt = not tested or not shown. Only part of the results is shown; count on the stated rates, not on these rows.

SMILES | T cruzi repl | FGF22 binding | MLL AF4-AF9 inh | Beta apoptosis | Ecoli growth | UCH37 inh | A1 inh | rRNA inh HTS | rRNA inh HTS OD600 | rRNA inh HTS RFP
Cc1ccc(NC(=O)c2ncn(CC(=O)NCc3nc4ccccc4[nH]3)n2)cc1C | nt | i | 0.2 | nt | 0.69 | -0.4 | nt | 3 | 9 | 1.5
O=C(Nc1ccccc1Sc1ccccc1)C1CCCO1 (centres undefined) | -7 | i | -2.0 | -9 | 0.67 | 0.9 | 1.4 | -33 | -31 | -7.1
O=C(N/N=C/c1coc2ccccc2c1=O)c1ccc(Cl)cc1 | -8 | i | -0.7 | -6 | nt | nt | -0.4 | 1 | -11 | 0.2
Cc1ccc(N=Cc2ccccc2O)cc1Cl | nt | i | -3.9 | nt | 0.7 | 3.6 | nt | 7 | 3 | 0.3
Cc1cccc(/C(N)=N/OC(=O)c2ccccc2Cl)c1 | -5 | i | 0.9 | 0 | 0.71 | 4.5 | -8.2 | 9 | -2 | -1.6
O=C1C2CCCCC2C(=O)N1c1ccc(NC2CCN(Cc3ccccc3)CC2)c([N+](=O)[O-])c1 (centres undefined) | -6 | i | 15 | 2 | 0.65 | 9.3 | 1.6 | -20 | -8 | -6.8
O=C(NCCc1ccc(Cl)cc1)c1ccc2c(c1)OCCO2 | -6 | nt | -0.4 | nt | 0.71 | 1.8 | -0.4 | 14 | 12 | 0.3
COc1ccc(OC)c(S(=O)(=O)NCCC2=CCCCC2)c1 | -4 | nt | nt | -2 | 0.71 | 4.5 | -0.1 | -15 | -20 | 0.6
COC(=O)c1ccc(C2Nc3ccccc3NC3=C2C(=O)CC(C)(C)C3)cc1 (centres undefined) | -8 | i | -0.9 | 1 | 0.7 | 6.5 | 0.0 | 12 | 7 | 2.1
Cc1ccc(NC(=S)N(CCCN(C)C)Cc2cc3cc4c(cc3[nH]c2=O)OCO4)c(C)c1 | 0 | i | -0.9 | -2 | 0.66 | -8.9 | 0.2 | 10 | 5 | -6.0
Cc1cc(Nc2ccc(F)cc2F)n2nc(C)nc2n1 | -9 | i | -4.9 | -2 | 0.74 | -1.2 | 1.1 | 8 | 11 | 0.2
Cc1ccc(-c2cc(C(=O)N3CCN(c4ccc(F)cc4)CC3)c3ccccc3n2)o1 | 29 | nt | nt | 23 | 0.82 | -47 | 0.5 | nt | nt | nt
CC(=O)Nc1ccc(NC(=O)C(C)OC(=O)c2cc(S(=O)(=O)N3CCOCC3)ccc2Cl)cc1 (centres undefined) | 3 | i | -4.2 | -1 | 0.68 | 2.4 | 1.9 | 2 | 4 | -1.0
COc1ccc(CC(=O)Nc2cc(Cl)ccc2N2CCCC2)cc1 | 2 | i | 1.2 | 3 | 0.64 | 2.4 | 0.4 | -2 | 4 | 0.1
COc1ccc(-c2nnn3c2nc(NCc2ccccc2)c2ccccc23)cc1 | -22 | i | -2.1 | 6 | 0.72 | -81 | 0.5 | 14 | 15 | 0.4
Cc1cc(C(=O)COC(=O)c2cc(Cl)ccc2N)c(C)n1Cc1ccco1 | 1 | i | -2.6 | -5 | 0.68 | -315 | 0.2 | 4 | 6 | -2.1
O=C(CN1C(=O)c2cccnc2Oc2ccc(Cl)cc21)NCCc1ccccc1 | 1 | i | -1.4 | -4 | 0.71 | 1.9 | -0.1 | 1 | 5 | -3.4
COc1ccccc1CNC(=O)C1CCCN(S(=O)(=O)c2ccc3c(c2)C(C)(C)C(=O)N3C)C1 (centres undefined) | -9 | i | -2.0 | 5 | 0.73 | 4.0 | 0.3 | -8 | -9 | 2.2
COc1ccc(C(=O)N2CCCC(C(=O)c3ccccc3OC)C2)cc1OC (centres undefined) | -11 | i | -0.2 | 0 | 0.73 | 3.8 | 0.3 | 3 | -1 | -0.7
COc1ccc(/C=N/N2CCN(c3ccccc3)CC2)cc1Br | -2 | i | -12 | -3 | nt | nt | -5.8 | 9 | 13 | 2.3
COC(=O)Nc1nnc(SCc2ccc(C)cc2)s1 | 5 | nt | nt | 0 | 0.74 | 2.3 | -0.3 | nt | nt | nt
O=C(COc1ccc(-c2ccccc2)cc1)N1CCCC1 | 14 | i | -0.9 | -7 | 0.7 | 0.8 | -6.2 | -10 | -15 | 0.1
C=CCC[C@@H](Cc1ccc(F)cc1)C(=O)OCCNC(=O)[C@@H](CC=C)CC(=O)N(CCO)Cc1ccccc1 | nt | i | -17 | -8 | nt | 1.6 | 2.2 | -9 | -30 | 11
CCCc1c(C)nn(-c2ncccc2[N+](=O)[O-])c1C | 8 | i | 1.5 | -4 | 0.69 | 1.8 | 0.0 | 19 | 15 | 4.3
O=C(Nc1cccc(S(=O)(=O)NC2=NCCCCC2)c1)c1cc(-c2ccco2)nc2ccccc12 | 3 | i | -7.6 | 6 | 0.73 | -49 | -0.9 | 4 | 7 | -2.5
O=C(NCCN1C(=O)C2C3C=CC(C3)C2C1=O)N1CCOCC1 (centres undefined) | -2 | i | -0.9 | -7 | 0.75 | -3.3 | 0.3 | 14 | 19 | -1.4
Cc1cc(-c2nn(-c3ccccc3F)cc2CN2CCCC(C(N)=O)C2)c(C)s1 (centres undefined) | -15 | i | 1.9 | -9 | 0.65 | 3.3 | 0.7 | 9 | 9 | 2.8
O=C(O)c1nc(-c2ccccc2)n(-c2ccccc2)n1 | 2 | nt | nt | 2 | 0.72 | 1.3 | 0.4 | nt | nt | nt
COc1ccc(-c2nc(C(F)(F)F)c(OC)o2)cc1OC | 5 | nt | nt | -2 | 0.69 | 1.1 | 0.5 | nt | nt | nt
CCCN(CC(=O)Nc1ccccc1OC)C(=O)CSC(=S)N1CCCC1 | nt | i | -1.0 | 2 | 0.68 | -0.5 | -0.1 | nt | nt | nt
CN(C)N1C(N)=C(C#N)C(c2ccc(Br)cc2)C2=C1CC(C)(C)CC2=O (centres undefined) | 14 | i | -2.6 | 11 | 0.64 | -40 | -0.3 | 8 | 0 | -0.4
CCn1c(COc2cccc(OC)c2)nnc1SCC(=O)Nc1cccc(OC)c1 | 0 | nt | nt | -10 | 0.64 | 1.3 | 0.3 | nt | nt | nt
COCCCNC(=O)CCC(=O)NNc1nc2ccccc2c2nc(-c3ccccc3)nn12 | -15 | i | 8.7 | 1 | 0.7 | 2.7 | 0.2 | 26 | 26 | 3.7
CC(=O)C(Sc1ccc2nnc(-c3ccc(C)cc3)n2n1)C(C)=O | -4 | i | 1.2 | 0 | 0.72 | 9.4 | -1.3 | -6 | -7 | 0.3
Cc1ccc(OCC(=O)Nc2cccc(-c3nnc(-c4ccccc4)o3)c2)c(C)c1 | -7 | nt | nt | -1 | 0.73 | 4.4 | 0.0 | nt | nt | nt
CCOC(=O)c1c(NC(=O)CSc2nnc3c(n2)[nH]c2ccccc23)sc2c1CCN(C)C2 | 77* | nt | nt | -1 | 0.68 | 3.2 | -0.2 | nt | nt | nt
O=C(/C=C/c1ccc2ccccc2n1)N1CCN(S(=O)(=O)c2ccccc2F)CC1 | 3 | i | -6.6 | -1 | 0.68 | 3.3 | 1.1 | -17 | -15 | 7.6
C[C@]12c3[nH]c4ccc(Cl)cc4c3CCN1C(=O)[C@@H](CC(=O)NCCc1ccccn1)C[C@@H]2C(=O)N1CCCCC1 | nt | i | -2.2 | nt | 0.73 | -0.2 | nt | 8 | 3 | 1.8
CC1CCN(c2c(NCc3ccc(C(=O)N(C)C4CCCCC4)cc3)c(=O)c2=O)CC1 | 10 | i | -2.1 | nt | 0.71 | -0.1 | nt | 4 | -2 | -5.7
COc1ccc(CC(=O)NCC(=O)N/N=C/c2ccc(C)o2)cc1 | -4 | i | -17 | -5 | nt | nt | 0.8 | -5 | 9 | 4.8
NC(=O)c1c(NC(=O)CSc2nnc(-c3ccccc3)n2CC2CCCO2)sc2c1CCC2 (centres undefined) | -7 | nt | nt | -3 | 0.72 | 2.9 | -0.3 | nt | nt | nt
Nc1nc2c(s1)C(=O)CCC2 | 1 | nt | nt | -4 | 0.75 | 5.1 | -0.1 | nt | nt | nt
Cc1ccc(S(=O)(=O)N(C)C)cc1NC(=O)c1cccs1 | -8 | i | -4.3 | -2 | 0.7 | 5.7 | 0.1 | 14 | 9 | 2.1
CN(C)S(=O)(=O)c1cccc(NC(=O)CCCC2CCCCC2)c1 | -6 | i | -0.4 | -1 | 0.72 | 1.3 | 1.0 | -37 | -68 | -5.3
COc1ccc(OC)c(C2=Nn3c(nnc3C3CCCCC3)SC2)c1 | 13 | nt | nt | 17 | 0.66 | 0.9 | -0.2 | nt | nt | nt
O=C(O)c1cccc2c1C(=O)c1ccc(-c3ccc(OC(F)(F)F)cc3)cc1S2(=O)=O | nt | i | 1.2 | 0 | 0.7 | -1.3 | 1.4 | -9 | -12 | -11
OCCCNc1ncnc2c1[nH]c1ccccc12 | -10 | i | 1.7 | -3 | 0.69 | -24 | 0.3 | -6 | -8 | -2.4
O=C(CCl)NCc1c(Cl)cccc1-n1cccc1 | -19 | i | 5.9 | 10 | 0.75 | 4.6 | 0.2 | -10 | -6 | -5.3
CC(c1ccccc1)N(NC(=O)C(O)(c1ccccc1)c1ccccc1)C(=O)c1ccccc1 (centres undefined) | 9 | i | -0.2 | 7 | 0.72 | 1.3 | 0.0 | 14 | 14 | 3.6
COc1ccc(C2N(c3ccc(OC)cc3)C(=O)C3CCCN32)cc1 (centres undefined) | -1 | i | -0.8 | 2 | 0.71 | 0.2 | 1.0 | 11 | 11 | -1.5
CCCn1nc2cc(C(=O)NC3CCCc4ccccc43)ccc2c1OCC (centres undefined) | 1 | i | 0.7 | -3 | 0.77 | 1.0 | 0.8 | -5 | -21 | 3.9

Part of the list above in order of length of the SMILES, low to high.
SMILES | T cruzi repl | FGF22 binding | MLL AF4-AF9 inh | Beta apoptosis | Ecoli growth | UCH37 inh | A1 inh | rRNA inh HTS | rRNA inh HTS OD600 | rRNA inh HTS RFP
Cc1ccc(S(=O)(=O)N(C)C)cc1NC(=O)c1cccs1 | -8 | i | -4.3 | -2 | 0.7 | 5.7 | 0.1 | 14 | 9 | 2.1
COc1ccc(OC)c(C2=Nn3c(nnc3C3CCCCC3)SC2)c1 | 13 | nt | nt | 17 | 0.66 | 0.9 | -0.2 | nt | nt | nt
CN(C)S(=O)(=O)c1cccc(NC(=O)CCCC2CCCCC2)c1 | -6 | i | -0.4 | -1 | 0.72 | 1.3 | 1.0 | -37 | -68 | -5.3
COc1ccc(C2N(c3ccc(OC)cc3)C(=O)C3CCCN32)cc1 (centres undefined) | -1 | i | -0.8 | 2 | 0.71 | 0.2 | 1.0 | 11 | 11 | -1.5
CC(c1ccccc1)N(NC(=O)C(O)(c1ccccc1)c1ccccc1)C(=O)c1ccccc1 (centres undefined) | 9 | i | -0.2 | 7 | 0.72 | 1.3 | 0.0 | 14 | 14 | 3.6
O=C(O)c1cccc2c1C(=O)c1ccc(-c3ccc(OC(F)(F)F)cc3)cc1S2(=O)=O | nt | i | 1.2 | 0 | 0.7 | -1.3 | 1.4 | -9 | -12 | -11

Screens as filed in PubChem BioAssay.
